# BLM inh: blocks DNA unwinding by human BLM helicase | P54132 | recombinant BLM DNA unwinding, fluorescence dequenching | Potency, µM (titrated, usually from 56.1 µM), for the others: top-dose activity change, negative = inhibition, hits mostly inhibitors | actives 0.2% (n = 350,000);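 also: plate controls were vehicle for no effect and no enzyme for full effect; nearly all actives have a fitted effect of over 35% in size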
# Pol beta inh: DNA polymerase beta (human) inhibition | P06746 | Pol beta primer extension/strand displacement, fluorescence kinetic | Potency, µM (series often up to 114 µM), for the others: at the highest dose activity change, negative = inhibition, actives largely listed as inhibitors | actives 1.3% (n = 340,000); also: % is scaled to controls: 0 for no effect and ±100 for the full control effect
#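 Values derive from four-parameter Hill fits of normalized kinetic data: reads at 0 and 10 min following addition of 50 nM substrate to 10 nM Pol beta preincubated 15 min with compound.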
# Pol kappa inh: blocks human DNA polymerase kappa activity; Q9UBT6; purified Pol kappa, fluorescent DNA synthesis assay, 10 min; Potency, µM (doses to about 107 µM), for inactives: at the top dose activity, negative = inhibition, actives largely listed as inhibitors; actives 0.53% (n = 400,000); also: % is scaled to controls: 0 for no effect and ±100 for the full control effect
#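 Inhibition of 10 nM Pol kappa is measured by a fluorescent read-out at 0 and 10 min following addition of 50 nM substrate (final), with a 15-min room-temperature compound preincubation.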
# APEX1 inh: inhibitors of human APE1 endonuclease | P27695 | recombinant APE1, TAMRA/BHQ-2 abasic DNA cleavage fluorescence | Potency, µM (highest dose often 65.8 µM), for the others: at the highest dose activity change, negative = inhibition, actives largely listed as inhibitors | actives 0.35% (n = 350,000) | AID 2517;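 also: plate controls were vehicle for no effect and reference inhibitor for full effect; nearly all actives have a fitted effect of over 55% in size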
#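 Measures dequenching upon AP-site incision of a 5'-TAMRA/3'-BHQ-2 THF-containing duplex, 50 nM; human APE1 0.75 nM after 15 min room-temperature exposure to compound; kinetic three-point read at one-minute spacing.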
# Pol iota inh: inhibitors of human DNA polymerase iota. Potency, µM (highest dose often 115 µM), for inactives: top-dose activity, negative = inhibition, most hits filed as inhibitors. AID 588590. Q9UNA4. Pol iota fluorescent replication assay, 10 min. actives 1% (n = 390,000)
#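 Pol iota at 10 nM preincubated 15 min with compounds at room temperature; reaction started with fluorescent substrate, 50 nM final. Fluorescence read kinetically at 0 and 10 min; buffer-only wells as negative control.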
# An asterisk follows results filed as active; u = inconclusive; x = no result given; & = joins results of further samples; [ ] = dose if it differs, or a comment. Calls follow the shape of the dose curve; as a rule, active = well fitted curve in the direction sought with a large enough effect; inconclusive = small, poorly fitted or top-dose-only effect, or another doubt; inactive = no such curve, though single readings can be large; an effect the other way counts as inactive or inconclusive. Potency is read from the fitted curve at half-maximal effect. Not all compounds are listed; the hit share may differ from the screen's.
# The line under a structure holds: BLM inh	Pol beta inh	Pol kappa inh	APEX1 inh	Pol iota inh
[1] CNC(C)[C@H](O)c1ccccc1 (some centres not stated)
    -13%	x	-9%[60.1 µM]	4%	x
[2] BrCC(Br)(Br)Br
    x	x	-5%	u	-19%
[3] Cc1ccc(OCC(=O)N2CCN(Cc3ccc([N+](=O)[O-])cc3)CC2)cc1
    -3%	-22%	1%	-1%	u
[4] CCOC(=O)N1CCN(Cc2cn3ccccc3n2)CC1
    1%	-23%	0%	0%	u
[5] Cc1ccc(NC(=O)N(Cc2ccc3c(c2)OCO3)C2CCN(Cc3ccccc3)CC2)cc1C
    -8%	6%	-20%	x	0%
[6] CCOc1cc2c(cc1OCC)-n1cccc1C(c1cc(OC)ccc1F)NC2 (configuration not stated)
    -10%	-33%	-9%	-27%	2%
[7] COc1ccccc1N1CCN(C2CCN(C(=O)c3cc(OC)c(OC)c(OC)c3)CC2)CC1
    0%	0%	3%	8%	25%
[8] COc1ccc(CCN(C)Cc2ccncc2)cc1OC
    2%	11%	-3%	12%	19%
[9] CCCCC(CC)COC(=O)CCCCC(=O)OCC(CC)CCCC (configuration not stated)
    x	x	3%	-9%&3%	20%
[10] CN1CC(CNC(=O)OCc2ccccc2)CC2c3cccc4c3c(cn4C)CC21 (configuration not stated)
    -1%	x	-13%[60.1 µM]	-4%	x

# Rewritten tab-delimited: part of the list above.
item	molecule	BLM inh	Pol beta inh	Pol kappa inh	APEX1 inh	Pol iota inh
5	Cc1ccc(NC(=O)N(Cc2ccc3c(c2)OCO3)C2CCN(Cc3ccccc3)CC2)cc1C	-8%	6%	-20%	x	0%
6	CCOc1cc2c(cc1OCC)-n1cccc1C(c1cc(OC)ccc1F)NC2 (configuration not stated)	-10%	-33%	-9%	-27%	2%
7	COc1ccccc1N1CCN(C2CCN(C(=O)c3cc(OC)c(OC)c(OC)c3)CC2)CC1	0%	0%	3%	8%	25%
8	COc1ccc(CCN(C)Cc2ccncc2)cc1OC	2%	11%	-3%	12%	19%
9	CCCCC(CC)COC(=O)CCCCC(=O)OCC(CC)CCCC (configuration not stated)	x	x	3%	-9%&3%	20%

# Part of the list above, screen by screen:
[8] COc1ccc(CCN(C)Cc2ccncc2)cc1OC
[9] CCCCC(CC)COC(=O)CCCCC(=O)OCC(CC)CCCC (configuration not stated)

Compound	8	9
BLM inh	2%	x
Pol beta inh	11%	x
Pol kappa inh	-3%	3%
APEX1 inh	12%	-9%&3%
Pol iota inh	19%	20%

# Continued.
# The line under a structure holds: BLM inh	Pol beta inh	Pol kappa inh	APEX1 inh	Pol iota inh
[11] CO/N=C(/C(=O)NC1C(=O)N2C(C(=O)O)=C(CSc3nc(=O)c(O)nn3C)CSC12)c1csc(N)n1 (configuration not stated)
    -5%&-15%	x	u	u	x
[12] CN(C)CCCNCC(=O)Nc1ccc(Cl)cc1C(=O)c1ccccc1
    -6%	-7%	-14%	1%	13%
[13] Cc1sc2ccccc2c1CC1=NCCN1
    x	-5%[57.1 µM]	7%[60.1 µM]	54%[activator]	7%
[14] CCOc1cc2c(cc1OCC)-n1cccc1C(c1cccc(F)c1F)NC2 (configuration not stated)
    -7%	-15%	0%	0%	18%
[15] Nc1ccc(Cc2ccc(N)c(Cl)c2)cc1Cl
    x	x	11%	-1%	17%
[16] CCOc1cc2c(cc1OCC)-n1cccc1C(c1ccccc1F)NC2 (configuration not stated)
    -6%	-7%	-28%	-6%	10%
[17] CN(C[C@H](Cc1ccccc1)N(C[C@H](c1ccccc1)N(CCc1ccccc1)N=O)N=O)N=O
    -10%	0%	-11%	-12%	-4%
[18] Oc1ccc(C2NCc3ccccc3-n3cccc32)cc1Cl (configuration not stated)
    -5%&0%	6%&5%	-10%&4%	11%&4%	-6%&11%
[19] CNC(C)[C@@H](O)c1ccccc1 (some centres not stated)
    -8%	x	2%[19.4 µM]	x	x
[20] O=C(COc1ccc2ccccc2c1)N1CCN(CC2CC3C=CC2C3)CC1 (configuration not stated)
    -2%	u	-6%	-1%	-6%

# A few values from the results shown:
# entry 14 | APEX1 inh = 0%
# entry 17 | Pol kappa inh = -11%
# entry 16 | Pol iota inh = 10%
# entry 13 | APEX1 inh = 54%[activator]
# entry 12 | Pol kappa inh = -14%
# entry 20 | Pol kappa inh = -6%
# entry 18 | Pol kappa inh = -10%&4%

# Screening data (PubChem)
